Insulin prom inh – TRM-6 insulin promoter activity inhibition | TRM-6 cells (human fetal islet line), insulin promoter-eGFP reporter, imaging; reporter expression induced with tamoxifen | inhibition, % at 2 µM | hit rate 0.9% among 130,000 | AID 1273;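 active = inhibition above the mean plus 3 SD, with well images judged a real hit on visual review, cut at about 60% in these data, passing the limit was not always enough; inconclusive = inhibition over the cutoff but images rejected on review; inactive = inhibition not above the cutoff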
RGS16-Gao HTS – modulates binding between human RGS16 and Galphao | bead-based flow cytometry RGS16-Galphao binding, fluorescence; actives lie on both sides | binding response (% of control), % at 10 µM | hit rate 0.38% among 220,000;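 active = below 25% or above 175%, edge rows of some plates excepted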;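 also: Galphao activated by GDP with aluminum fluoride before binding; 100% = wells without compound and 0% = beads without RGS; some results beyond the cut were filed as inactive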
HSV replic up – increases HSV replication in cells | HSV replication augmentation in cells, fold increase | maximum fold increase | hit rate 0.005% among 220,000 | AID 1956;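 active = peak rise of 1.5-fold or more in the series; inconclusive = self-fluorescent or not available for retest; tested in PC3 cells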;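 also: first round at 10 µM; read as green reporter fluorescence; hits show the peak of a series up to 25 µM; 1 = signal of infected wells without compound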
PKD1 kinase inh – PKD1 (human) kinase inhibition; Q15139; PKD1 kinase fluorescence polarization assay; inhibition, %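 (about 10 µM by stock and volumes)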; hit rate 0.056% among 200,000; AID 797;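 active = inhibition of 50% or more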;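 also: controls were vehicle for no effect and a reference inhibitor for full effect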
Target sequence (Q15139 whole entry, looked up): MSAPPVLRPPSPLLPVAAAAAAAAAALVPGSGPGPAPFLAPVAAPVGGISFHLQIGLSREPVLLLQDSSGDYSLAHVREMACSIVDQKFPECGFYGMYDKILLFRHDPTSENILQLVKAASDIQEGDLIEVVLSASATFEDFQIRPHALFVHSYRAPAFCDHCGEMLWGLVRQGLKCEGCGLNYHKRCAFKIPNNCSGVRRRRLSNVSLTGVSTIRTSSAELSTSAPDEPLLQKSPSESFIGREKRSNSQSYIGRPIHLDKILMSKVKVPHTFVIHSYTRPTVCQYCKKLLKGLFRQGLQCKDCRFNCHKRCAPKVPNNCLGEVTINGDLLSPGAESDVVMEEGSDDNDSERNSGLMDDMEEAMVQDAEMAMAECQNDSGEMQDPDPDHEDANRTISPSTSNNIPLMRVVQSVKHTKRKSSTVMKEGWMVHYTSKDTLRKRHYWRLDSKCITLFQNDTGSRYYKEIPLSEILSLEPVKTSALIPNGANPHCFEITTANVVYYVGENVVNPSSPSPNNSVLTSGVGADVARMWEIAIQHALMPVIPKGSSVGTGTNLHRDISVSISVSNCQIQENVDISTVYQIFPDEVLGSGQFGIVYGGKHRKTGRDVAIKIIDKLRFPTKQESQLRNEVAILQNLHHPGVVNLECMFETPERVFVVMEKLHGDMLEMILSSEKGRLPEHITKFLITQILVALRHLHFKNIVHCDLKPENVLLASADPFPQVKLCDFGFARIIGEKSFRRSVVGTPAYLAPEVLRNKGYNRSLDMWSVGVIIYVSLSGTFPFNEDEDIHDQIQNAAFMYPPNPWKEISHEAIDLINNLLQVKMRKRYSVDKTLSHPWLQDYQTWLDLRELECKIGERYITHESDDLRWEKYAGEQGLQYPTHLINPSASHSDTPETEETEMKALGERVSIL
GALR2 agonist – agonists of human galanin receptor 2 (GALR2). O43603. GALR2-expressing cells, agonist activation read-out. activation, %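 (tested at 5 µM)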. hit rate 0.48% among 140,000. AID 803;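 active = above mean plus 3 SD of all compounds, about 5% in these data, not always enough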;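 also: 0% = vehicle buffer wells and 100% = reference agonist at full effect; tested in CHO reporter cells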
Insulin prom inh cell count – further read-out of Insulin prom inh, marked with its call; normalized cell count, %; measured here: cell count, toxicity; reference of the scale not given here;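 cells exposed to compound for 48 h; stained nuclei by imaging scaled within each plate; lower means fewer cells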
HSV replic up primary fold – second read-out of HSV replic up, no call of its own (marks repeat the call); fold increase; compound at 10 µM; measured here: primary screen fold increase 10 uM; tested in PC3 cells;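 GFP signal in the first replicate; 1 = infected wells without compound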
Active calls of the source: *; i = inactive; ? = inconclusive; nt = no result given.

canonical_smiles	Insulin prom inh	Insulin prom inh cell count	RGS16-Gao HTS	HSV replic up	HSV replic up primary fold	PKD1 kinase inh	GALR2 agonist
COC(=O)c1cccnc1Oc1ccccc1	nt	nt	116	i	1.1	nt	nt
Cc1ccccc1C1C2=C(Nc3[nH]n(-c4ccccc4)c(=O)c31)c1ccccc1C2=O (configuration not stated)	35	156	98	i	1.1	10	-0.8
Cc1cc(-c2ccc([N+](=O)[O-])cc2)nc2ccccc12	10	59	88	i	1	4	nt
O=C1/C(=C\c2cccs2)Sc2ccc3ccccc3c21	29	66	106	i	1.2	-9	-1.3
Cc1cccc(C)c1NC(=O)Nc1cccs1	nt	nt	54	i	1	-7	-0.4
CC(C)Cc1nc(N2CCN(C(=O)c3ccccc3)CC2)c(C#N)c2c1CCC2	49	82	102	i	0.93	0	-1.6
COc1cccc(CC(=O)Nc2ccc(-c3csc(C)n3)cc2)c1	nt	nt	99	i	0.92	nt	nt
CS(=O)(=O)Nc1nc2ccccc2[nH]1	nt	nt	93	i	1	nt	nt
Cc1cccc(C)c1OCC(O)Cn1ccnc1C (configuration not stated)	nt	nt	102	i	0.9	-14	nt
COc1cc(/C=C2/OC(=O)c3cc([N+](=O)[O-])ccc32)cc(OC)c1OC	-100	68	nt	i	1	-3	-1.6
O=C(O)CN=C(NS(=O)(=O)c1ccc(Cl)cc1)c1ccc(F)cc1	-40	143	99	i	0.97	4	nt
CCCCNC(=S)N1CCN(CC)CC1	nt	nt	104	i	1.1	4	nt
Cc1ccc(C(=O)Nc2c(C)cc(-c3ccc(Cl)cc3)oc2=O)cc1	25	39	101	i	0.86	-6	-1.3
Cc1onc(-c2ccccc2)c1C(=O)Oc1ccccc1	nt	nt	95	i	0.96	nt	nt
Cc1ccc(COc2ccccc2C(=S)N2CCCC2)cc1	nt	nt	100	i	0.83	-2	nt
COc1ccc(NS(=O)(=O)c2ccc(NC(C)=O)cc2)c(OC)c1	-53	104	111	i	0.91	-8	nt
COc1cc(SC#N)ccc1N=Cc1c(C)[nH]n(-c2ccc(C)cc2C)c1=O	-9	59	89	i	0.99	4	-2.2
CC(C)C(NC(=O)OCc1ccccc1)C(=O)N1CCOCCOCCOCC1 (configuration not stated)	-27	92	43	i	0.97	-4	nt
Cc1cc(C)n2nc(CC(=O)NCc3ccccc3Cl)nc2n1	nt	nt	108	i	1.1	-5	0.1
CCCCCNS(=O)(=O)c1cc(C)ccc1OC	31	122	127	i	1.1	-8	-0.7
O=c1nc2c(O)cccn2c2c1c(=O)[nH]c1ccccc12	37	114	81	?	nt	7	0.3
O=C(Nc1cccc(Cl)c1)c1ccc(OC(=S)N2CCOCC2)cc1	nt	nt	97	i	0.83	-7	nt
Cc1ccnc(NC(=O)c2cccc(NS(=O)(=O)c3ccccc3C)c2)c1	-7	132	58	i	0.97	-1	-1.5
O=C(NC1CCCCC1)C1CCCN(S(=O)(=O)c2ccc(Br)s2)C1 (configuration not stated)	11	88	96	i	1	-2	nt
CCCOC(=O)CC1C(=O)NCCN1Cc1cc(OC)cc(OC)c1 (configuration not stated)	nt	nt	100	i	0.93	-6	nt
CCOc1cc(NC(=S)NCc2ccco2)c(OCC)cc1NC(C)=O	-23	128	106	i	0.87	0	-2.4
COc1ccc(NC(=O)C(=O)NCCO)cc1Cl	13	102	102	i	1	-4	-0.2
Fc1ccccc1Nc1nc2ccccc2n2nnnc12	nt	nt	100	i	1	-8	-1.8
Cc1cc(N(CCO)CCO)nc(-n2nc(C)cc2C)n1	13	103	98	i	1.1	-6	-1.1
C=CCN1C(=O)C(O)(CC(=O)c2ccc(-n3cccc3)cc2)c2ccccc21 (configuration not stated)	-25	97	101	i	0.76	3	-0.3
CCOC(=O)c1cn(CC(=O)Nc2cccc(F)c2)nn1	27	68	102	i	0.86	-1	nt
C[N+](C)(C)CCNC(=O)c1c(O)c2c([nH]c1=O)CCCC2	nt	nt	98	i	1.1	-7	-1.1
C/C(CS(=O)(=O)c1ccc(Cl)c(Cl)c1)=N/NC(N)=S	nt	nt	97	i	0.91	1	nt
NNC(=O)c1sc2cc(C(F)(F)F)cnc2c1-c1ccccn1	nt	nt	99	i	0.96	-3	nt
CC(=O)Nc1c(NC(C)(C)C)c2ccccc2oc1=O	nt	nt	105	i	0.98	1	nt
Cc1ccc(C)c(-c2csc(N/N=C/c3ccco3)n2)c1	-4	118	104	i	0.99	2	nt
CCC(=O)Nc1ccc(OCc2nnc3c4ccccc4c(C)nn23)cc1	nt	nt	100	i	0.87	-2	nt
CCOC(=O)N1CCN(C(=O)CSc2ccc3nnc(-c4ccccn4)n3n2)CC1	33	149	109	i	0.96	-2	nt
CN(C)S(=O)(=O)c1ccc(C(=O)NNC(=O)C2COc3ccccc3O2)cc1 (configuration not stated)	-3	86	103	i	0.91	-6	nt
Cc1cc(C)cc(N(CC(=O)N2CCC(C)CC2)S(=O)(=O)c2ccccc2)c1	-16	116	99	i	0.95	-5	-0.3
O=C(c1ccccc1)c1ccc(OCC(O)CN2CCN(Cc3ccccc3)CC2)cc1 (configuration not stated)	-26	88	102	i	0.65	0	-0.6
CCS(=O)(=O)N1CCC(C(=O)OCC(=O)c2ccc(Br)cc2)CC1	38	109	nt	i	0.87	4	-1.7
Cc1onc(-c2ccccc2Cl)c1C(=O)NCc1ccccc1	-29	19	103	i	0.85	5	-1.5
CCOc1ccc(-n2c(SCC(=O)NCc3ccco3)nc3ccccc3c2=O)cc1	33	105	95	i	0.88	-1	nt
CCOC(=O)N1CCN(C(=O)Nc2ccc3oc(C)nc3c2)CC1	-8	125	104	i	1.1	-10	0.9
Cc1cccc2cc(C(c3nnnn3Cc3ccccc3)N3CCN(C)CC3)c(=O)[nH]c12 (configuration not stated)	nt	nt	86	i	0.71	-8	-0.9
CCCCNC(=O)CSc1nc2ccc(N3CCOCC3)cc2c(=O)n1Cc1ccc(OC)cc1	nt	nt	90	i	1.1	5	nt
COc1cc(-c2n[nH]c(=S)n2-c2ccccc2C(F)(F)F)cc(OC)c1OC	nt	nt	107	i	0.96	nt	nt
O=C(NCCCN1CCOCC1)c1ccco1	3	100	118	i	0.98	-9	-0.2
CCCC(=O)Nc1ccccc1NC(=O)c1ccc(OC(C)=O)cc1	25	180	106	i	0.84	-2	nt

Remaining list, next part
canonical_smiles	Insulin prom inh	Insulin prom inh cell count	RGS16-Gao HTS	HSV replic up	HSV replic up primary fold	PKD1 kinase inh	GALR2 agonist
COc1cc(C(=O)NNC(=S)NC(=O)/C=C/c2ccccc2)cc(OC)c1OC	nt	nt	102	i	1.2	nt	nt
COc1cccc(C(=O)Nc2cc3c(cc2Cl)OCCCO3)c1	0	142	96	i	0.95	-8	-0.4
Cc1ccc(-c2ccc(/C=N/NC(N)=S)o2)cc1	nt	nt	88	i	1	nt	nt
COc1cc(/C=C2/C(=N)N3C=CSC3=NC2=O)ccc1OCCCOc1ccccc1C	-28	115	100	i	0.9	-7	-1.6
NCCCCc1cn(CC(=O)N2CCNCC2)nn1	nt	nt	101	i	1	-3	nt
CCOC(=O)C1(Cc2cccc(F)c2)CCN(Cc2cnn(CC)c2)CC1	nt	nt	102	i	0.94	3	nt
Cc1cccc(OCCCn2ccnc2)c1	47	147	101	i	0.9	-4	-1.6
CCN(CC)CCCNC1=C(Cl)C(=O)c2ccccc2C1=O	nt	nt	96	i	0.57	0	nt
Cc1cccc(C(=O)N[C@H](C(=O)Nc2ncc(C)s2)C(C)C)c1	nt	nt	104	i	0.83	2	nt
Cc1cc(C)c2cc(CNC3CCCC3)c(Cl)nc2c1	9	71	80	i	1.1	-6	nt
O=C(COc1ccccc1)NNC(=O)c1cc2ccccc2oc1=O	-29	84	105	i	1.1	0	-0.5
N#Cc1ccccc1NC(=O)COC(=O)/C=C/c1cn(-c2ccccc2)nc1-c1ccc(Cl)cc1	nt	nt	96	i	0.84	1	nt
CCc1ccccc1N1CCN(S(=O)(=O)c2cc(OC)ccc2OC)CC1	-1	123	102	i	0.98	-9	-0.4
Nc1ncnc2nc(SCCN3CCCCC3)[nH]c12	-33	103	104	nt	nt	-5	0.9
CCOc1cc(/C=C2\N=C(C)OC2=O)cc(Br)c1OCCc1ccccc1	-7	107	103	i	1	9	-3.3
O=C(Nn1c(O)c(C=C2N=c3ccccc3=N2)sc1=S)c1ccc(Cl)cc1	12	86	108	nt	nt	-2	-2.9
CC1=C(C(=O)N(C)CCC#N)C2(CCCCC2)OC1=O	nt	nt	108	i	1.1	-6	-1.7
CCOc1ccc(C(OC(=O)c2ccco2)C(=O)NCc2ccc(C)cc2)cc1 (configuration not stated)	17	97	104	i	1.1	-2	-1.5
O=C(CCCc1nc(-c2ccc(Cl)cc2)no1)N1CCOCC1	-354	62	103	i	1	-3	-2.1
CCn1c(SCC(=O)N2CCOCC2)nc2c(c1=O)SC(C)C2 (configuration not stated)	47	66	102	i	1	-8	-0.1
O=C(c1cc2n(n1)C(C(F)(F)F)CC(c1ccc(F)cc1)N2)N1CCCC1 (configuration not stated)	nt	nt	98	i	1.1	-6	-0.1
Fc1c(F)c(C(F)(F)F)c(F)c(F)c1N1CCN(c2ccc3nnc(C(F)(F)F)n3n2)CC1	-10	103	99	i	1.1	-8	-4.4
O=C(CC1C(=O)NCCN1C(=O)Nc1ccc(Cl)cc1)Nc1ccc(F)cc1 (configuration not stated)	nt	nt	105	i	0.9	-4	nt
COC(=O)c1cc(OC)c(OC)c(OC)c1NC(=O)c1ccc(S(=O)(=O)N(C)C)cc1	64	39	102	i	0.81	-7	-0.4
N=C1C(c2nc3ccccc3s2)=C(O)CN1C1CCC(O)CC1 (configuration not stated)	nt	nt	101	i	0.96	nt	nt
COc1ccccc1N1C(=O)[C@@H]2C(C(=O)CN3C(=O)c4ccccc4C3=O)=NN[C@@H]2C1=O	nt	nt	84	i	1.1	nt	nt
C=CCOc1ccc(C2C(C(=O)c3ccco3)=C(O)C(=O)N2CCCN(CC)CC)cc1 (configuration not stated)	-67	132	99	i	0.92	-18	-2.7
CCOc1ccc(NC(=O)c2ccc3c(c2)N(Cc2ccc(F)cc2)C(=O)CS3=O)cc1 (configuration not stated)	nt	nt	107	i	1	8	-2.0
CCCN(CCC)CCCNC(=O)CC(C(=O)N1CCc2ccccc21)n1ccnc1 (configuration not stated)	8	95	101	i	0.93	-10	-4.0
Nn1c(COc2ccc(Cl)cc2)nc2ccccc2c1=O	-44	135	109	i	0.93	-9	0.7

Single records, from the list above. Screens in order: Insulin prom inh	Insulin prom inh cell count	RGS16-Gao HTS	HSV replic up	HSV replic up primary fold	PKD1 kinase inh	GALR2 agonist
O=C(CC1C(=O)NCCN1C(=O)Nc1ccc(Cl)cc1)Nc1ccc(F)cc1 (configuration not stated) in the list: nt	nt	105	i	0.9	-4	nt
CCCN(CCC)CCCNC(=O)CC(C(=O)N1CCc2ccccc21)n1ccnc1 (configuration not stated) in the list: 8	95	101	i	0.93	-10	-4.0

(more compounds)
canonical_smiles	Insulin prom inh	Insulin prom inh cell count	RGS16-Gao HTS	HSV replic up	HSV replic up primary fold	PKD1 kinase inh	GALR2 agonist
O=C(NCc1ccco1)C(=O)NCC1OCCN1S(=O)(=O)c1ccc(F)cc1 (configuration not stated)	-14	120	nt	i	0.82	-12	-0.3
CCOc1ccc(C2c3[nH]c4ccccc4c3CCN2C(=O)Cn2cncn2)cc1 (configuration not stated)	-42	78	101	i	1	4	nt
COc1cc(NC(=O)Nc2cccc(Cl)c2)c(OC)cc1NC(=O)CN1CCCCC1	8	174	121	i	0.85	-8	-1.0
COC(=O)c1sccc1NC(=S)N1CCCC(C)C1 (configuration not stated)	21	103	99	i	1.2	0	-2.4
Cc1cc(C)n2nc(C(=O)OCC(=O)c3cc(C)n(C)c3C)nc2n1	nt	nt	91	i	1.1	-4	-3.3
COCCOC(=O)C1=C(C)N=C2SCCC(=O)N2C1c1ccc(OC(=O)c2ccco2)cc1 (configuration not stated)	29	101	107	i	0.98	-4	-2.1
Cc1cc(NC(=O)CSCCc2ccncc2)no1	25	101	102	nt	nt	-7	0.2
CCOC(=O)Cc1csc(NC(=O)C(C)(C)CC)n1	-9	75	101	i	0.93	3	-1.4
O=C(c1cccc(F)c1)N1CCN(Cc2ccco2)CC1	29	90	129	i	0.89	7	-1.1
O=c1cc(CNC2CCCCC2)c2ccccc2[nH]1	nt	nt	99	i	1.1	-14	-0.8
Cc1nc(Cl)cc(CS(=O)(=O)c2ccc(Cl)cc2)n1	67	118	89	i	0.89	-6	nt

Screening data deposited in PubChem BioAssay by several laboratories.
